Source: PubChem
Rce1 inhib = yeast Ras-converting enzyme inhibition; Q03530; yeast membranes, quenched prenylated peptide cleavage fluorescence; calls only; actives 0.27% (n = 290,000);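 active = fall in fluorescence gain of 50% or more versus controls, with final raw signal at or below 3038400; inconclusive = same 50% fall but final raw signal above 3038400; inactive = fall in fluorescence gain under 50%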;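 note: plate controls were neutral control wells for no effect and wells lacking membranes for full effect; tested at 10 µM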
Target sequence (Q03530 whole entry, looked up): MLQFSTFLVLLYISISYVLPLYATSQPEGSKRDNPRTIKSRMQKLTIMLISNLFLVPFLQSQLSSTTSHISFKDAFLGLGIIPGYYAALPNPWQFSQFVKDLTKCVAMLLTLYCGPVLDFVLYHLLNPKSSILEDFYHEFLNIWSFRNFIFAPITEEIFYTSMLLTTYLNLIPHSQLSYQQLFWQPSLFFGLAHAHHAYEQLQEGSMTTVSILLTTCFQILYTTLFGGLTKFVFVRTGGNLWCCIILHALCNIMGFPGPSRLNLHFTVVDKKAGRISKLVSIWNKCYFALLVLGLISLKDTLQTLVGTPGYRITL
CSC inhib = cancer stem cell inhibition. cancer stem cell-like cells viability, luminescence. inhibition, % at 7.5 µM. actives 1.1% (n = 300,000);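 active = mean at 75% or more and at least half the replicates too; inconclusive = mean and replicates disagree; tested in HMLE shEcad cells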;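 note: 0% = median of negative and 100% = median of positive control wells; the first replicate is given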
Env fusion inh = blocks HIV Env-driven cell-cell fusion; HeLa-JRFL Env/CEM21 cell fusion, luciferase; inhibition, % at 12.3 µM; actives 1.1% (n = 360,000); AID 651610;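 active = mean replicate inhibition score of at least 50 and every replicate individually at or above 50; inconclusive = only one of the two criteria met; inactive = mean below 50 and not all replicates reaching 50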;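 note: 0% = plate neutral controls and 100% = maraviroc near 300 nM; one replicate is shown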
eIF4H FP inh = inhibitors of RNA binding by human eIF4H | inhibition, % at 35 µM | Q15056 | actives 0.94% (n = 290,000) | eIF4H fluorescence polarization binding assay;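 active = 50% or more with normal probe brightness, or confirmed in later tests; inconclusive = above 50% with abnormal brightness, or retests that disagree; inactive = below 50% or failed in later tests; about a fifth of its hits are not listed in these tables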;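 note: calls also rest on retests at 20 µM and on dose response follow-up; 0% = protein and probe with vehicle and 100% = probe without protein; strong numbers were not always called active; many hits fall short of the cut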
MT1-MMP act inh = blocks activation of human MT1-MMP; P50281; HT1080 RFP-PRO-GFP cells, GFP/RFP ratio fluorescence, overnight; percent of plate control window, DMSO zero; GFP/RFP ratio change, % at 20 µM; actives 0.061% (n = 360,000); AID 651647;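 active = GFP/RFP ratio change of at least 30% with cell ATP level not reduced by more than half and red fluorescence within 50% of control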; note: strong numbers were not always called active
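Test system: HT1080 RFP-PRO-GFP cells; Benchmarks: DMSO and RFP-L50D-GFP cell wells; Timing: cells overnight before dosing, compound overnight, 37 °C, 5% CO2; Compound: one 20 µM compound dose with 1% DMSO; Read-out: GFP/RFP fluorescence ratio.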
Yeast UUG start = alters start codon recognition fidelity in yeast; S. cerevisiae UUG-firefly luciferase reporter, luminescence/redox ratio; activity score, % at 18.7 µM; actives 0.13% (n = 350,000);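 active = replicate mean at a twofold rise or more, about +100% in these data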;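 note: firefly luciferase made from a UUG start codon reports start codon fidelity; reporter light over untreated wells divided by growth signal over untreated wells; some hits fall short of that in this replicate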
PABP polyA inh = PABP-poly(A) binding inhibition. actives 1% (n = 290,000). inhibition, % at 35 µM. P11940. AID 2014. PABP-poly(A) RNA binding, fluorescence polarization;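 active = 50% or more with normal probe brightness, or confirmed in later tests; inconclusive = above 50% with abnormal brightness, or retests that disagree; inactive = below 50% or failed in later tests; about a fifth of its hits are not listed in these tables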;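 note: calls also rest on retests at 20 µM and on dose response follow-up; controls were probe without protein and protein plus probe with vehicle; some compounds called inactive have numbers as strong as hits; many hits fall short of the cut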
eIF4H FP inh retest = recorded beside eIF4H FP inh, whose call it bears; inhibition, %; compound at 20 µM; confirmation average;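 mean of two retest wells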
PABP polyA inh retest = second read-out of PABP polyA inh, no call of its own (marks repeat the call); inhibition, %; compound at 20 µM; confirmation repeats;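 mean of two retest wells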
MT1-MMP act inh RFP = recorded beside MT1-MMP act inh, whose call it bears; RFP signal change, %; measured here: RFP expression control read;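 0 = vehicle wells; hits needed this value within 50% of zero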
Active calls of the source: *; i = inactive; u = inconclusive; x = no result given; & = joins results of further samples.

SMILES | Rce1 inhib | CSC inhib | Env fusion inh | eIF4H FP inh | MT1-MMP act inh | MT1-MMP act inh RFP | Yeast UUG start | PABP polyA inh | others
O=C(Nc1ccc(N2CCN(C(=O)c3cccs3)CC2)cc1)c1ccccc1F | i | 37.2 | 2.3 | 6.5 | -2.0 | -2.5 | -12.2 | 2.5
O=C(CCc1ccccc1)Nc1ncc2c(n1)CCCC2=O | i | -7.8 | x | -5.3 | 4.4 | 7.4 | 7.4 | -2.5
Clc1ccc(N2CCCCCC2)nn1 | i | -28.2 | 15.5 | 8.0 | 3.0 | 4.0 | x | 0.2
Cc1c(Cl)cccc1NC(=S)N1CCN(c2ncccn2)CC1 | i | x | 6.3 | -14.1 | 7.4 | 7.7 | -9.9 | 8.1
Fc1cccc(Oc2nc3ccccc3n3cccc23)c1 | i | 8.3 | x | 12.9 | -2.1 | 6.0 | x | 2.7
COc1ccc(NC(=O)CCNS(=O)(=O)c2cccc(C(C)=O)c2)cc1S(N)(=O)=O | i | -34.6 | -11.4 | 8.4 | 0.6 | 7.7 | -21.7 | 21.5
COC(=O)c1ccccc1C(=O)N1CCCC(C(=O)c2cc(F)ccc2F)C1 (configuration not stated) | i | x | 7.2 | -5.4 | 0.4 | -1.1 | x | -5.3
O=C(Nc1cc(C(F)(F)F)ccc1Cl)c1cc(C2CC2)on1 | i | -16.7 | 4.2 | -8.2 | 2.6 | 5.2 | -17.5 | 0.1
CCCC(=O)Nc1nnc(-c2cccc(OCC)c2)s1 | i | 21.2 | -48.4 | -4.8 | 5.3 | -1.3 | -15.4 | -5.3
O=C(Nc1ccc(N2CCOCC2)cc1)c1ccc([N+](=O)[O-])o1 | i | x | -289.3 | -8.4 | 4.4 | -4.3 | -27.4 | 8.1
Nc1ccc(C(=O)OCC(=O)Nc2ccc3c(c2)OCO3)cc1[N+](=O)[O-] | i | x | 1.1 | 2.9 | -1.3 | 2.3 | x | 6.7
CCC(C)(C)NC(=O)CN(C(=O)CCC(=O)Nc1ccccn1)c1ccc(F)c(Cl)c1 | i | -6.7 | x | 5.4 | 2.3 | 3.3 | -0.5 | -4.2
O=C(O)Cn1c(-c2ccccc2)nc2ccccc21 | i | 2.7 | x | -5.2 | 1.6 | 0.9 | -30.5 | 9.9
COc1cccc(CN(C)C(=O)c2ccccc2Sc2ccccc2C#N)c1OC | i | x | 7.3 | -1.7 | -4.7 | 0.5 | 3.9 | 9.2
O=Cc1ccc(-c2ccc(C(=O)O)cc2)o1 | i | -2.0 | -2.6 | 2.8 | -2.4 | -0.2 | 11.1 | 16.3
CN1CCN(C(=O)/C(=C/c2ccccc2Cl)NC(=O)c2ccccc2)CC1 | i | x | 4.0 | 1.4 | -1.4 | 1.9 | -10.5 | 1.0
CCN1CCN(CCCN(Cc2cccs2)C(=S)Nc2ccccc2C)CC1 | i | 13.3 | -14.8 | 4.7 | 4.8 | 1.3 | x | -0.8
Cc1ccc2nc(SCc3nnc(-c4cccs4)o3)[nH]c2c1 | i | x | -49.8 | 1.6 | -1.4 | -0.6 | -26.8 | 8.7
COC1(OC)N=C(N)C2(C#N)C(c3ccc4c(c3)OCO4)C12C#N (configuration not stated) | i | 2.0 | x | 11.9 | -4.5 | 1.7 | -14.2 | 17.6
CC1CN(S(=O)(=O)c2cccc3nsnc23)CC(C)O1 (configuration not stated) | i | -12.1 | -5.5 | -0.5 | 4.8 | 0.7 | -1.1 | 0.4
O=C(NCCCCc1ccccc1)C1CC(c2cccc(F)c2)=NO1 (configuration not stated) | i | 8.4 | -17.3 | -4.2 | 0.9 | 5.2 | 10.3 | 1.7
CCCCOc1ccc(NC(=O)c2cnc(C)cn2)cc1 | i | -6.9 | 3.5 | 6.2 | 6.4 | -3.0 | -0.1 | -1.7
CS(=O)(=O)N1CCC(C(=O)N2CCN(c3ccc(F)cc3)CC2)CC1 | i | -7.2 | 7.8 | -2.5 | 1.6 | 2.8 | x | 1.9
CCc1nc2ccc(C(=O)NCCCn3ccnc3)cn2c1N(C)C(=O)c1cccc(OC)c1 | x | x | 1.7 | x | 3.7 | 6.3 | -6.9 | x
CCN1C(=O)c2cccc3c(NC(=O)C4CCCCC4)ccc1c23 | i | 6.4 | x | -2.1 | 10.6 | 8.2 | -14.5 | -6.0
COc1ccc(CC(=S)NCCc2ccccc2)cc1 | i | -2.9 | -73.6 | -3.3 | 5.0 | 6.8 | 0.5 | 3.1
Cc1ccc(NC(=O)c2cc3ccccc3o2)cc1 | i | -11.7 | -147.7 | 16.2 | 2.4 | -1.1 | -31.5 | -4.9
CSc1ccccc1NC(=O)COc1ccccc1Cl | i | x | x | -11.5 | -1.6 | -1.6 | -6.5 | -3.4
COc1cc(NC(=S)N2CCc3ccccc3C2)cc(OC)c1 | x | -11.3 | -1.3 | -3.5 | 4.5 | 8.4 | x | -12.3
CCCn1c(=O)c2ccccc2n2c(SCC(=O)Nc3cc(C)on3)nnc12 | i | -16.5 | -22.7 | 15.4 | 3.4 | -3.1 | -4.2 | 7.4
Cc1cc(C)cc(NC(=O)CSc2nc(=O)n(CCCN3CCOCC3)c3c2CCCC3)c1 | i | -8.9 | 2.8 | x | 2.0 | 2.1 | -13.1 | x
O=C(Nc1ccc(Oc2ccc3ccccc3c2)cc1)c1ccco1 | i | 59.3 | u | 5.2 | 3.1 | -10.5 | -23.1 | -10.1
Cc1nn(Cc2ccc(C(=O)N3CCCC3)o2)c(C)c1[N+](=O)[O-] | i | x | x | -2.9 | 1.4 | 4.6 | -5.8 | 5.7
O=C1C(=O)N(Cc2cccnc2)C(c2ccc(Br)cc2)/C1=C(\O)c1ccc2c(c1)OCCO2 (configuration not stated) | i | -6.3 | -0.1 | -16.8 | 1.0 | -0.9 | -12.3 | 5.9
C[C@H](CO)N1C[C@H](C)[C@@H](CN(C)Cc2cccc(C(F)(F)F)c2)OCc2cnnn2CCCC1=O | x | x | 26.9 | x | -5.0 | -2.5 | 5.6&18.3 | x
Nc1sc2c(c1C(=O)NC1CC1)CCCC2 | x | -10.5 | -0.7 | x | -3.8 | 8.3 | -26.1 | x

Among those listed so far, 2 contain a COOH group.
SMILES | Rce1 inhib | CSC inhib | Env fusion inh | eIF4H FP inh | MT1-MMP act inh | MT1-MMP act inh RFP | Yeast UUG start | PABP polyA inh | others
O=C(O)Cn1c(-c2ccccc2)nc2ccccc21 | i | 2.7 | x | -5.2 | 1.6 | 0.9 | -30.5 | 9.9
O=Cc1ccc(-c2ccc(C(=O)O)cc2)o1 | i | -2.0 | -2.6 | 2.8 | -2.4 | -0.2 | 11.1 | 16.3

Next results
SMILES | Rce1 inhib | CSC inhib | Env fusion inh | eIF4H FP inh | MT1-MMP act inh | MT1-MMP act inh RFP | Yeast UUG start | PABP polyA inh | others
CCc1nnc(NC(=O)CSc2nc3ccccc3c(=O)n2CCCOC)s1 | i | 15.7 | x | -1.7 | -9.4 | -5.3 | -11.1 | 6.2
O/C(=C\c1ccc2ccccc2n1)c1ccncc1 | i | -1.1 | -142.5 | x | -58.2 | 6.7 | -20.1 | x
CCc1cc(=O)[nH]c(SCC(=O)N2CCC(Cc3ccccc3)CC2)n1 | i | -12.3 | 2.1 | x | -1.9 | -1.7 | -6.9 | x
Cc1cc(C(=O)N=Nc2c(O)n(C(C)C)c3ccccc23)n[nH]1 | i | -9.7 | x | 0.6 | 4.2 | -2.0 | -11.2 | -5.8
O=C(NNC(=O)c1csc(-c2cccnc2)n1)c1ccccc1 | i | -0.8 | 0.4 | -2.9 | 3.3 | 3.8 | -17.0 | -0.7
CC(CCc1ccccc1)NC(=O)CN1C(=O)NC2(CCCCC2C)C1=O (configuration not stated) | x | -15.3 | x | x | 1.5 | 1.1 | -12.7 | x
O=C(NC(=S)Nc1ccc(S(=O)(=O)Nc2nccs2)cc1)C1CC1 | i | -15.7 | 10.7 | -13.3 | 4.6 | 6.0 | -7.0 | 2.6
O=C(Nc1ccc(C(=O)O)cc1)Nc1cccc2ccccc12 | i | -8.4 | x | -10.1 | -0.7 | 2.3 | -9.6 | -2.1
COc1ccc(-c2nc(C=O)cs2)cc1 | i | -4.1 | -41.4 | -10.2 | 11.9 | 0.6 | 0.1 | -1.1
CNc1ccc(SC#N)cc1 | i | 0.5 | -4.1 | 4.4 | x | x | x | 5.3
CN(C)S(=O)(=O)c1cccc(NC(=O)c2n[nH]c(=O)c3ccccc23)c1 | x | 3.2 | 25.6 | -5.3 | 0.3 | 1.2 | x | 6.8
COC(=O)c1sc(NC(=S)NC(=O)c2ccccc2C)nc1C | i | -3.9 | -2.1 | -12.2 | 2.6 | -3.3 | x | 1.4
C/C(=N\NC(=O)c1ccc(CN(C)S(=O)(=O)c2ccc(C)cc2)cc1)c1ccc(OC(F)F)cc1 | i | -8.1 | 1.6 | -11.5 | -5.2 | -12.5 | x | -0.4
C/C(=N/NC(=S)Nc1ccccc1)c1ccc2c(c1)OCO2 | i | 58.8 | x | -0.8 | 5.1 | 5.2 | x | 6.4
Cc1cccc2cc3c(NC(=O)c4ccccn4)nn(C)c3nc12 | i | -13.6 | x | -0.9 | 7.4 | 2.0 | -6.3 | -11.2
O=C(NC1CC1)C1=C[C@@H](c2c[nH]c3ccccc23)C[C@@H](OCCCCO)O1 | i | 1.7 | -0.2 | 0.6 | -3.8 | 6.5 | -4.2 | 1.0
Cc1ccc(-c2csc(NC3OC(=O)c4ccccc43)n2)cc1 (configuration not stated) | i | -24.8 | 1.7 | -17.5 | -4.6 | -8.4 | -14.5 | -4.4
COC(=O)C1=C(C)N(CCc2cc(OC)c(OC)c(OC)c2)C(=O)N[C@H]1c1ccccc1 | i | 10.1 | 24.1 | x | -0.6 | 1.9 | -11.7 | x
CCN(CC)C(=O)NCc1c(C)cc(C)cc1C | i | 5.2 | x | -6.1 | -1.6 | 3.2 | -1.7 | -2.2
COc1nc(Oc2ccc(C(=O)OCC(N)=O)cc2)nc(N(C)C)n1 | i | 1.0 | x | -5.3 | 0.0 | 3.0 | -20.6 | 3.9
O=C(c1ccco1)N1CCN=C1SCc1cccc(F)c1 | i | -1.0 | 2.4 | -8.9 | 0.5 | 1.4 | -11.7 | -0.9
Cn1c(=O)c(=O)n(C)c2cc(S(=O)(=O)N3CCCC3C(=O)NCc3cccnc3)ccc21 (configuration not stated) | i | -15.8 | -6.2 | 0.5 | -3.6 | 0.8 | -6.0 | 82.4 | eIF4H FP inh retest=0.3;PABP polyA inh retest=27.3
CCOC(=O)CNS(=O)(=O)c1ccc(C)cc1 | i | 9.7 | -3.8 | -0.8 | 1.4 | 2.8 | x | 8.3
O=C(NC(CC(=O)N1CCN(c2ccccc2)CC1)c1ccccc1)c1ccccc1Cl (configuration not stated) | i | 0.3 | -0.7 | -7.2 | 4.2 | 1.8 | x | -5.5
NS(=O)(=O)c1ccc(NC(=S)NCc2ccccc2Cl)cc1 | i | 16.0 | -7.8 | 7.0 | -2.3 | -5.4 | x | -4.8
COC(=O)c1cc(-c2cccc(OC)c2)n[nH]1 | i | 9.3 | -19.1 | 0.2 | 4.3 | 11.2 | -9.5 | -7.9
COC(=O)c1sccc1NC(=S)N1CCN(c2ccccc2F)CC1 | i | 15.3 | -4.0 | -0.3 | -2.1 | 4.3 | x | -4.7
Cc1ccc(S(=O)(=O)/N=C(\N)c2ccc(Cl)cc2)cc1 | i | -8.1 | 6.2 | -2.2 | 7.6 | -4.3 | -9.9 | 1.5
